Source: PubChem (several laboratories)
eIF4H FP inh = human eIF4H binding inhibitors, primary screen, translation initiation inhibitor project, biochemical, uHTS, fluorescence polarization | AID 2012, 2009 | inhibition, % at 35 µM | actives 0.94% (n = 290,000) | Eukaryotic translation initiation factor 4H (Homo sapiens), Q15056 | eIF4H fluorescence polarization binding assay;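 active = 50% or more with normal probe brightness, or confirmed in later tests; about a fifth of its hits are not listed in these tables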;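 note: calls also rest on retests at 20 µM and on dose response follow-up; 0% = protein and probe with vehicle and 100% = probe without protein; strong numbers were not always called active; many hits fall short of the cut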
CSC inhib = cancer stem cell viability inhibitors, primary screen, luminescence | actives 1.1% (n = 300,000) | cancer stem cell-like cells viability | inhibition, % at 7.5 µM;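 active = mean at 75% or more and at least half the replicates too; tested in HMLE shEcad cells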;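 note: 0% = median of negative and 100% = median of positive control wells; the first replicate is given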
PABP FP inh = PABP poly(A) RNA binding inhibitors, primary screen, biochemical, fluorescence polarization, uHTS | Polyadenylate-binding protein 1 (Homo sapiens), P11940 | inhibition, % at 35 µM | actives 1% (n = 290,000) | AID 2014, 2009;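 active = 50% or more with normal probe brightness, or confirmed in later tests; about a fifth of its hits are not listed in these tables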;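 note: calls also rest on retests at 20 µM and on dose response follow-up; controls were probe without protein and protein plus probe with vehicle; some compounds called inactive have numbers as strong as hits; many hits fall short of the cut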
Target sequence (P11940 whole entry, looked up): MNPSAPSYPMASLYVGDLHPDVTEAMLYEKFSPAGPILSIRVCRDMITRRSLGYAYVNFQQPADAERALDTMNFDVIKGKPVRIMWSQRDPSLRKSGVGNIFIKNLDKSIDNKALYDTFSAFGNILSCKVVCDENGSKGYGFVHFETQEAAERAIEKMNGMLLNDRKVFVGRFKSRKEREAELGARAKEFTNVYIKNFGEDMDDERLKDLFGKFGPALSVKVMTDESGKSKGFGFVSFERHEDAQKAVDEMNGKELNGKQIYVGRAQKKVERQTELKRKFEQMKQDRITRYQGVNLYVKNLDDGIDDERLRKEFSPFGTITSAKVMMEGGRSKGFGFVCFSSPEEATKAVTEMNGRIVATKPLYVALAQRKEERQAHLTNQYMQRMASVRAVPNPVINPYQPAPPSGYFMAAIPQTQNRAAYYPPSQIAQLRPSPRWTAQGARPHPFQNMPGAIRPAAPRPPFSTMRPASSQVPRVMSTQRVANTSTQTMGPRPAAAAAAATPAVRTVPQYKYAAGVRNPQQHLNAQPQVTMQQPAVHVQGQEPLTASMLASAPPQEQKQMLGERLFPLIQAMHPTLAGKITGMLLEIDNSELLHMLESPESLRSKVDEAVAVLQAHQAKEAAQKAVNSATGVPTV
HIV Env fusion = inhibitors of HIV-1 Env-driven cell-cell fusion, primary screen, HeLa-JRFL effector, CEM21 target cells, luciferase; inhibition, % at 12.3 µM; actives 1.1% (n = 360,000); AID 651610, 2012;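 active = mean replicate inhibition score of at least 50 and every replicate individually at or above 50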;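 note: 0% = plate neutral controls and 100% = maraviroc near 300 nM; one replicate is shown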
MT1-MMP act inh = blockers of MT1-MMP proenzyme processing, primary screen, HT1080 RFP-PRO-GFP cells, GFP/RFP fluorescence; AID 651647, 2012; GFP/RFP ratio fluorescence, overnight; percent of plate control window, DMSO zero; GFP/RFP ratio change, % at 20 µM; actives 0.061% (n = 360,000); Matrix metalloproteinase-14 (Homo sapiens), P50281;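 active = GFP/RFP ratio change of at least 30% with cell ATP level not reduced by more than half and red fluorescence within 50% of control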; note: strong numbers were not always called active
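Assay system: RFP-PRO-GFP reporter HT1080 cells; read-out basis: GFP/RFP fluorescence ratio; benchmarks: DMSO wells and RFP-L50D-GFP cells; doses: 20 µM single dose, 1% DMSO; schedule: overnight cell settling, then overnight compound exposure, 37 °C, 5% CO2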
Rce1 inh = yeast Rce1p protease inhibitors, primary screen, biochemical, fluorescence, cell-free homogeneous; CAAX prenyl protease 2 (Saccharomyces cerevisiae (strain ATCC 204508 / S288c)), Q03530; yeast membranes, quenched prenylated peptide cleavage fluorescence; calls only; actives 0.27% (n = 290,000); AID 2563, 2010;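 active = fall in fluorescence gain of 50% or more versus controls, with final raw signal at or below 3038400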;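 note: plate controls were neutral control wells for no effect and wells lacking membranes for full effect; tested at 10 µM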
UUG fidelity = modulators of yeast start codon fidelity, primary screen, whole organism, S. cerevisiae, single point, plate reader. S. cerevisiae UUG-firefly luciferase reporter, luminescence/redox ratio. activity score, % at 18.7 µM. actives 0.13% (n = 350,000);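 active = replicate mean at a twofold rise or more, about +100% in these data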;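 note: firefly luciferase made from a UUG start codon reports start codon fidelity; reporter light over untreated wells divided by growth signal over untreated wells; some hits fall short of that in this replicate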
MT1-MMP act inh RFP = further read-out of MT1-MMP act inh, marked with its call; RFP signal change, %; measured here: RFP expression control read;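 0 = vehicle wells; hits needed this value within 50% of zero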
* = called active by the depositor.

How did O=c1cc(N2CCc3ccccc32)[nH]c(=O)n1-c1ccccc1Cl do in these assays?
eIF4H FP inh: -4; CSC inhib: 8; PABP FP inh: -3; HIV Env fusion: -41; MT1-MMP act inh: 6; Rce1 inh: inactive; MT1-MMP act inh RFP: 4

Results for O=C(Nc1cccc(Cl)c1)c1cc(S(=O)(=O)N2CCOCC2)cs1 ?
eIF4H FP inh: -2; CSC inhib: 3; PABP FP inh: -10; HIV Env fusion: -42; MT1-MMP act inh: 6; Rce1 inh: inactive; UUG fidelity: -7; MT1-MMP act inh RFP: -7

How did CCN(C(=O)Cc1c(C(=O)O)n(C)c2ccccc12)c1cc(OC)ccc1OC do in these assays?
eIF4H FP inh: -2; CSC inhib: -6; PABP FP inh: -1; HIV Env fusion: -3; MT1-MMP act inh: 1; Rce1 inh: inactive; UUG fidelity: -1; MT1-MMP act inh RFP: 6

How did O=C(Nc1cccc(Cl)c1)Nc1nnc(-c2ccccc2)o1 do in these assays?
eIF4H FP inh: 6; CSC inhib: 8; PABP FP inh: 0; HIV Env fusion: 16; MT1-MMP act inh: 0; Rce1 inh: inactive; UUG fidelity: -20; MT1-MMP act inh RFP: 2

Results for O=S1(=O)C=C(N2CCOCC2)c2ccccc21 ?
eIF4H FP inh: 39; CSC inhib: -1; PABP FP inh: 22; HIV Env fusion: -7; MT1-MMP act inh: 5; Rce1 inh: inactive; UUG fidelity: 0; MT1-MMP act inh RFP: 12

Results for Cc1ncsc1C(=O)Nc1nc2c(s1)CC(C)CC2 (configuration not stated) ?
eIF4H FP inh: -4; CSC inhib: 5; PABP FP inh: -4; HIV Env fusion: -171; MT1-MMP act inh: 1; Rce1 inh: inactive; UUG fidelity: -24; MT1-MMP act inh RFP: -6

What do the screens show for `CN(CC(=O)Nc1cccc(F)c1)C(=O)c1cc(-c2ccccc2)nc2ccccc12`?
CSC inhib: -3; MT1-MMP act inh: 0; Rce1 inh: inactive; UUG fidelity: 8; MT1-MMP act inh RFP: -6

What do the screens show for `CC(C)Oc1cccc(C(=O)N2CCCC2)c1`?
eIF4H FP inh: 6; CSC inhib: 3; PABP FP inh: 11; HIV Env fusion: -3; MT1-MMP act inh: 1; Rce1 inh: inactive; UUG fidelity: 1; MT1-MMP act inh RFP: 2

How did C=CCn1c(SCC(=O)Nc2cc(C)ccc2OC)nnc1-c1ccco1 do in these assays?
eIF4H FP inh: -3; CSC inhib: 14; PABP FP inh: -6; HIV Env fusion: -33; MT1-MMP act inh: -2; Rce1 inh: inactive; MT1-MMP act inh RFP: 1

Results for NS(=O)(=O)c1ccc(Sc2ccccn2)c([N+](=O)[O-])c1 ?
eIF4H FP inh: 7; CSC inhib: 20; PABP FP inh: -5; HIV Env fusion: -3; MT1-MMP act inh: 3; Rce1 inh: inactive; UUG fidelity: -21; MT1-MMP act inh RFP: -2

Results for CCCn1c2ccccc2c2cnn(CC(=O)NCCCN3CCN(c4ccccc4)CC3)c(=O)c21 ?
eIF4H FP inh: -8; CSC inhib: -3; PABP FP inh: -8; HIV Env fusion: 22; MT1-MMP act inh: 3; Rce1 inh: inactive; UUG fidelity: -21; MT1-MMP act inh RFP: -4

Results for CCn1cc(CNC(=O)CSc2nc(-c3ccc(OC)c(OC)c3)cc(C(F)(F)F)n2)c(C)n1 ?
eIF4H FP inh: -2; CSC inhib: 11; PABP FP inh: -7; MT1-MMP act inh: -1; Rce1 inh: inactive; MT1-MMP act inh RFP: -3

Gathered by group: the entries above containing a Cl atom
How did O=c1cc(N2CCc3ccccc32)[nH]c(=O)n1-c1ccccc1Cl do in these assays?
eIF4H FP inh: -4; CSC inhib: 8; PABP FP inh: -3; HIV Env fusion: -41; MT1-MMP act inh: 6; Rce1 inh: inactive; MT1-MMP act inh RFP: 4

Results for O=C(Nc1cccc(Cl)c1)c1cc(S(=O)(=O)N2CCOCC2)cs1 ?
eIF4H FP inh: -2; CSC inhib: 3; PABP FP inh: -10; HIV Env fusion: -42; MT1-MMP act inh: 6; Rce1 inh: inactive; UUG fidelity: -7; MT1-MMP act inh RFP: -7

How did O=C(Nc1cccc(Cl)c1)Nc1nnc(-c2ccccc2)o1 do in these assays?
eIF4H FP inh: 6; CSC inhib: 8; PABP FP inh: 0; HIV Env fusion: 16; MT1-MMP act inh: 0; Rce1 inh: inactive; UUG fidelity: -20; MT1-MMP act inh RFP: 2

(more compounds)
Results for CC1CCCC(NC(=O)/C=C/c2c(F)cccc2Cl)C1C (configuration not stated) ?
CSC inhib: -3; HIV Env fusion: -12; Rce1 inh: inactive; UUG fidelity: -9

Results for C/C(=N\NC(=O)c1cccnc1)c1cc(C)oc1C ?
eIF4H FP inh: 2; CSC inhib: -3; PABP FP inh: -4; MT1-MMP act inh: 7; Rce1 inh: inactive; UUG fidelity: -15; MT1-MMP act inh RFP: 12

Results for COc1ccc(C2=NS(=O)(=O)N(C)C(C(=O)NCc3ccccc3)=C2)cc1OC ?
eIF4H FP inh: -6; CSC inhib: -7; PABP FP inh: -4; MT1-MMP act inh: -4; Rce1 inh: inactive; UUG fidelity: 0; MT1-MMP act inh RFP: -5

Results for CCOc1cc(/C=N/n2c(C)nc3ccccc3c2=O)ccc1O ?
eIF4H FP inh: 4; CSC inhib: -2; PABP FP inh: 1; HIV Env fusion: -2; MT1-MMP act inh: 6; Rce1 inh: inactive; MT1-MMP act inh RFP: -1

What do the screens show for `Cc1ccc(OCC(=O)Nc2ccc(S(=O)(=O)N3CCOCC3)cc2)c(Br)c1`?
eIF4H FP inh: 2; CSC inhib: 4; PABP FP inh: 9; MT1-MMP act inh: 7; Rce1 inh: active; UUG fidelity: -13; MT1-MMP act inh RFP: -8

Results for CCCCNC(=O)[C@]1(C)CCC[C@@]2(C)C3CC[C@@]4(C)C[C@]3(CCC21)CC4=O (some centres not stated) ?
CSC inhib: -10; HIV Env fusion: 5; MT1-MMP act inh: 1; UUG fidelity: -7; MT1-MMP act inh RFP: -1

Results for N#CC1C(=O)Nc2cccnc21 (configuration not stated) ?
HIV Env fusion: -4; MT1-MMP act inh: 1; UUG fidelity: -12; MT1-MMP act inh RFP: 8

What do the screens show for `CC(C)c1csc2nc3n(c(=O)c12)CCCCC3`?
eIF4H FP inh: -1; CSC inhib: 6; PABP FP inh: -4; HIV Env fusion: -7; MT1-MMP act inh: 26; Rce1 inh: inactive; UUG fidelity: -18; MT1-MMP act inh RFP: 3

What do the screens show for `COc1cccc(C(=O)OCC(=O)NCCNC(=O)COC(=O)c2cccc(OC)c2OC)c1OC`?
eIF4H FP inh: 2; CSC inhib: -9; PABP FP inh: 6; HIV Env fusion: -1; MT1-MMP act inh: -3; Rce1 inh: inactive; UUG fidelity: -9; MT1-MMP act inh RFP: 0

How did Cc1ccc(NC(=O)CCN2CCC(C(N)=O)CC2)cc1 do in these assays?
eIF4H FP inh: 6; CSC inhib: -10; PABP FP inh: 3; HIV Env fusion: 2; MT1-MMP act inh: 1; Rce1 inh: inactive; UUG fidelity: -11; MT1-MMP act inh RFP: 7

Results for CC(C)CNC(=O)c1ccccc1NC(=O)Nc1ccccc1 ?
eIF4H FP inh: -5; CSC inhib: -6; PABP FP inh: -6; HIV Env fusion: 39; MT1-MMP act inh: -3; Rce1 inh: inactive; UUG fidelity: -1; MT1-MMP act inh RFP: -2

What do the screens show for `Cc1nnc(SCC(=O)Nc2cccc(S(=O)(=O)NC3=NCCCCC3)c2)n1Cc1ccccc1`?
eIF4H FP inh: -1; CSC inhib: -12; PABP FP inh: -4; HIV Env fusion: 5; MT1-MMP act inh: -2; Rce1 inh: inactive; MT1-MMP act inh RFP: 2

What do the screens show for `O=C(CCl)Nc1cc(SCC(O)CO)cc([N+](=O)[O-])c1` (configuration not stated)?
eIF4H FP inh: -9; PABP FP inh: 8; HIV Env fusion: -64; MT1-MMP act inh: -55; Rce1 inh: inactive; MT1-MMP act inh RFP: -41

How did CCC1(c2ccccc2)NC(=O)N(CC(=O)Nc2cccnc2Cl)C1=O (configuration not stated) do in these assays?
CSC inhib: -3; MT1-MMP act inh: 0; UUG fidelity: -16; MT1-MMP act inh RFP: 3

How did Cc1sc(-c2ccccn2)nc1OC(=O)c1ccc(Cl)cc1 do in these assays?
eIF4H FP inh: 8; PABP FP inh: -4; HIV Env fusion: -22; MT1-MMP act inh: -3; Rce1 inh: inactive; UUG fidelity: -27; MT1-MMP act inh RFP: 2

Results for O=S(=O)(c1ccc2nc(N3CCN(c4ccc(F)cc4)CC3)ccc2c1)N1CCCCC1 ?
eIF4H FP inh: 10; CSC inhib: 6; PABP FP inh: 6; HIV Env fusion: 3; MT1-MMP act inh: 0; Rce1 inh: inactive; UUG fidelity: 40; MT1-MMP act inh RFP: -1

How did Cc1ccccc1C(=O)NCc1nnc(SCC(=O)N2c3ccccc3Sc3ccccc32)n1C do in these assays?
eIF4H FP inh: 2; CSC inhib: 5; PABP FP inh: 2; HIV Env fusion: -71; MT1-MMP act inh: 12; Rce1 inh: inactive; UUG fidelity: 4; MT1-MMP act inh RFP: -1

Results for FC(F)(F)C(F)(F)C(F)(F)c1nc2nc(Cl)c(Cl)nc2[nH]1 ?
HIV Env fusion: 20; MT1-MMP act inh: -9; UUG fidelity: -17; MT1-MMP act inh RFP: 8

Results for CCCCC1=CC2=CC(=O)C(C)(OC(=O)CC)C(=O)C2=CN1CCOC (configuration not stated) ?
eIF4H FP inh: 42; CSC inhib: 3; PABP FP inh: 38; MT1-MMP act inh: 3; Rce1 inh: inactive; UUG fidelity: 15; MT1-MMP act inh RFP: 7

How did CCn1c(CCC(=O)Nc2nc3c(s2)CCCC3)nc2cc(S(=O)(=O)N(C)C)ccc21 do in these assays?
eIF4H FP inh: -1; CSC inhib: -6; PABP FP inh: -2; HIV Env fusion: -68; MT1-MMP act inh: -2; Rce1 inh: inactive; UUG fidelity: -16; MT1-MMP act inh RFP: -9

How did CCc1ccc(S(=O)(=O)NCc2cccs2)cc1 do in these assays?
eIF4H FP inh: -6; CSC inhib: 3; PABP FP inh: -14; HIV Env fusion: 23; MT1-MMP act inh: 2; Rce1 inh: inactive; UUG fidelity: 4; MT1-MMP act inh RFP: 1

Results for Cc1ccc(C(=O)OCC(=O)NC2CCCCCCC2)cc1C ?
HIV Env fusion: -14; MT1-MMP act inh: 1; UUG fidelity: -7; MT1-MMP act inh RFP: 5

Results for CC(=O)N1C(=O)C2(C(C#N)=C(N)Oc3n[nH]c(-c4ccccn4)c32)c2ccccc21 (configuration not stated) ?
eIF4H FP inh: -10; CSC inhib: 0; PABP FP inh: 2; HIV Env fusion: -146; MT1-MMP act inh: -6; Rce1 inh: inactive; UUG fidelity: -7; MT1-MMP act inh RFP: 2

What do the screens show for `Cc1cccc(C(=O)OCC(=O)c2c(N)n(CC(C)C)c(=O)n(C)c2=O)c1O`?
CSC inhib: -17; HIV Env fusion: 60*; MT1-MMP act inh: 5; Rce1 inh: inactive; MT1-MMP act inh RFP: -15

What do the screens show for `O=C(COc1ccc(Cl)cc1)Nc1c(-c2cccs2)nc2ccccn12`?
eIF4H FP inh: 2; CSC inhib: -9; PABP FP inh: 18; HIV Env fusion: 18; MT1-MMP act inh: 0; Rce1 inh: inactive; MT1-MMP act inh RFP: -2

How did CC(C)C(CCNC1CCN(C)CC1)c1ccc(Cl)cc1 (configuration not stated) do in these assays?
eIF4H FP inh: 0; PABP FP inh: 6; HIV Env fusion: 6; MT1-MMP act inh: 4; Rce1 inh: inactive; UUG fidelity: -13; MT1-MMP act inh RFP: 0

Only part of the results is shown; the hit share may differ from the screen's.
